PKD1 kinase inh = inhibitors of human PKD1 kinase, biochemical, fluorescence polarization; Serine/threonine-protein kinase D1 (Homo sapiens), Q15139; PKD1 kinase fluorescence polarization assay; inhibition, %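 (about 10 µM by stock and volumes)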; 200,000 compounds, 0.056% hits;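 active = inhibition of 50% or more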;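 note: controls were vehicle for no effect and a reference inhibitor for full effect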
HSV augment = enhancers of HSV replication in host cells, fold increase, host cell viability | HSV replication augmentation in cells | maximum fold increase | 220,000 compounds, 0.005% hits | AID 1956, 2009;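 active = peak rise of 1.5-fold or more in the series; inconclusive = self-fluorescent or not available for retest; tested in PC3 cells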;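 note: first round at 10 µM; read as green reporter fluorescence; hits show the peak of a series up to 25 µM; 1 = signal of infected wells without compound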
RGS16-Gao HTS = modulators of RGS16 binding to Galphao, primary screen, biochemical, human proteins, multiplexed bead flow cytometry; Regulator of G-protein signaling 16 (Homo sapiens) + Guanine nucleotide-binding protein …; bead-based flow cytometry RGS16-Galphao binding, fluorescence; actives lie on both sides; binding response (% of control), % at 10 µM; 220,000 compounds, 0.38% hits;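 active = below 25% or above 175%, edge rows of some plates excepted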;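 note: Galphao activated by GDP with aluminum fluoride before binding; 100% = wells without compound and 0% = beads without RGS; some results beyond the cut were filed as inactive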
Target sequence (O15492 whole entry, looked up): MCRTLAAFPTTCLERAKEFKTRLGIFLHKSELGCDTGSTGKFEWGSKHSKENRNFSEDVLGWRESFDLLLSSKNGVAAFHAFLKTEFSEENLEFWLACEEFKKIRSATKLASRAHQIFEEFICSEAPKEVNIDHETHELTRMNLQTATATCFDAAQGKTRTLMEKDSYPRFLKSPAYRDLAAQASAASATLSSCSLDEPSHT
Target sequence (P09471 whole entry, looked up): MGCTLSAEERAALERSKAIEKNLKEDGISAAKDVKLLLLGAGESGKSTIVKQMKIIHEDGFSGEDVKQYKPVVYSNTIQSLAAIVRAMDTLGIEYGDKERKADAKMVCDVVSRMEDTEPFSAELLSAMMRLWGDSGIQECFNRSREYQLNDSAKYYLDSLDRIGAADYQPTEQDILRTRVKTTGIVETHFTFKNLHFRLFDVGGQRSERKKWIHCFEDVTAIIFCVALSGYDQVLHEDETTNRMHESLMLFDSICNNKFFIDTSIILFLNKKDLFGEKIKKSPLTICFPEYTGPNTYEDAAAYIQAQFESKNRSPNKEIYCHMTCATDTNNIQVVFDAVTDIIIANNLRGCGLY
GALR2 agonist = GALR2 receptor agonists, primary screen, cell-based; 140,000 compounds, 0.48% hits; activation, %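 (tested at 5 µM)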; Galanin receptor type 2 (Homo sapiens), O43603; GALR2-expressing cells, agonist activation read-out;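 active = above mean plus 3 SD of all compounds, about 5% in these data, not always enough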;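 note: 0% = vehicle buffer wells and 100% = reference agonist at full effect; tested in CHO reporter cells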
Target sequence (O43603 whole entry, looked up): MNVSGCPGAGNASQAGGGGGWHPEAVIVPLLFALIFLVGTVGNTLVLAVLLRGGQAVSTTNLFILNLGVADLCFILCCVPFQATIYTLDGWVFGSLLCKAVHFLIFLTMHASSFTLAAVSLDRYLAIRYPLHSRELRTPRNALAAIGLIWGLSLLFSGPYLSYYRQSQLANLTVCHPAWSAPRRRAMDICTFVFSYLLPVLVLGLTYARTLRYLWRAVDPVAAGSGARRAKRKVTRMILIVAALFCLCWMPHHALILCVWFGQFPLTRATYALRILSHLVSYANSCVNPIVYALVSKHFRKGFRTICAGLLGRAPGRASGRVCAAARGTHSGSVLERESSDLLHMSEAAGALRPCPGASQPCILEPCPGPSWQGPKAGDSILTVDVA
INS promoter inh = inhibitors of insulin promoter-driven GFP, primary screen, imaging, TRM-6 cells (human fetal islet line), eGFP reporter, cell count. reporter expression induced with tamoxifen. inhibition, % at 2 µM. 130,000 compounds, 0.9% hits;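 active = inhibition above the mean plus 3 SD, with well images judged a real hit on visual review, cut at about 60% in these data, passing the limit was not always enough; inconclusive = inhibition over the cutoff but images rejected on review; inactive = inhibition not above the cutoff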
INS promoter inh cell count = second read-out of INS promoter inh, no call of its own (marks repeat the call); normalized cell count, %; measured here: cell count, toxicity; reference of the scale not given here;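 cells exposed to compound for 48 h; stained nuclei by imaging scaled within each plate; lower means fewer cells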
HSV augment primary fold = second read-out of HSV augment, no call of its own (marks repeat the call); fold increase; compound at 10 µM; measured here: primary screen fold increase 10 uM; tested in PC3 cells;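 GFP signal in the first replicate; 1 = infected wells without compound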
Numbers without * were called inactive; i = inactive; ? = inconclusive; / = not tested or not shown.

SMILES | PKD1 kinase inh | HSV augment | HSV augment primary fold | RGS16-Gao HTS | GALR2 agonist | INS promoter inh | INS promoter inh cell count
O=C(CN1CCCCC1)N1CCCc2c1c(=O)oc1ccc(OCc3ccccc3)cc21 | 0.2 | i | 0.9 | 104.0 | 0.7 | -2.6 | 157.8
CCN(CC)S(=O)(=O)c1ccc2c(c1)c(=O)c(C(=O)NCCCN(C)c1ccccc1)cn2C | -8.1 | i | 0.61 | 98.2 | -0.8 | / | /
Cc1c(C(=O)Nc2ccc(F)cc2)oc2ccc(S(=O)(=O)N3CCC4(CC3)OCCO4)cc12 | -8.7 | i | 0.85 | 99.6 | -1.7 | / | /
COc1ccccc1CN(C)C(=O)c1ccc2c(c1)NC(=O)CS2 | -3.9 | / | / | 101.3 | -0.7 | -6.7 | 119.4
COc1cccc(C(=O)N(c2ccc(OC)cc2OC)C2C=CS(=O)(=O)C2)c1 (stereo not drawn) | -10.4 | i | 0.99 | 104.4 | -0.1 | 45.5 | 68.5
COC(=O)c1ccccc1NC(=O)c1ccccc1NS(C)(=O)=O | -9.1 | i | 0.92 | 105.3 | -1.9 | -43.8 | 109.6
CC(NC(=O)OC(C)(C)C)C(=O)Oc1cc2oc(=O)cc(-c3ccccc3)c2cc1Cl (stereo not drawn) | -1.2 | i | 0.85 | 118.3 | 1.5 | 39.1 | 66.3
CC(C)(C)S(=O)(=O)Cc1nc(-c2ccc(Cl)c(Cl)c2)cs1 | / | i | 0.92 | 102.1 | / | / | /
COc1ccc(-c2cc(C3CCN(c4cc(Cl)nc(N)n4)CC3)[nH]n2)cc1 | -10.7 | i | 0.84 | 105.3 | -1.2 | -29.7 | 83.3
Cc1ccc2nc(NC(=O)COC(=O)c3ccccn3)sc2c1 | 13.7 | i | 0.99 | 94.6 | / | 18.2 | 109.0
Cc1nc(=O)c(-c2ccccc2)c(C)n1-c1ccc(C(=O)O)cc1 | -3.8 | i | 1.16 | 84.7 | -0.7 | 8.3 | 72.3
COc1ccccc1CCNC(=O)c1cnn2c(C(F)F)cc(C)nc12 | 8.6 | i | 0.94 | 101.5 | -0.8 | / | /
Cn1cccc1CC(=O)NNC(=O)Nc1ccc(Cl)cc1 | -9.5 | i | 0.95 | 94.6 | -1.3 | 16.7 | 122.6
Cn1c(NC(=O)c2cccc(C(F)(F)F)c2)cc(=O)n(C)c1=O | 5.8 | i | 0.91 | 102.7 | -2.2 | / | /
O=C(CSc1cccc[n+]1[O-])c1ccc(Cl)s1 | -0.1 | i | 0.92 | 106.6 | / | / | /
O=C(COC(=O)CCN1C(=O)c2cccc([N+](=O)[O-])c2C1=O)NC1CCS(=O)(=O)C1 (stereo not drawn) | -7.2 | i | 0.92 | 117.0 | / | -23.8 | 172.5
O=C(O)CCC(=O)Nc1ccc(/C=C/C(=O)C2CC2)cc1 | 7.7 | i | 0.99 | 111.1 | / | 28.2 | 188.0
Cc1cc(S(=O)(=O)NCc2ccccc2)ccc1OCC(=O)Nc1cccc([N+](=O)[O-])c1 | -18.7 | i | 0.76 | 108.6 | -0.4 | -71.4 | 69.8
Cc1ccc(C(=O)NNC(=O)CSc2nnc3c(n2)[nH]c2ccc(F)cc23)cc1 | -0.3 | i | 0.79 | 94.2 | -1.4 | -2.0 | 78.8
Cc1cccc(OCc2nc(-c3ccc(-n4cccc4)cc3)no2)c1 | 6.9 | i | 0.83 | 101.4 | -1.9 | / | /
COc1ccc(NC(=S)Nc2ccccc2OC)c(OC)c1 | -6.3 | i | 0.89 | 111.2 | / | / | /
O=[N+]([O-])c1cc2c(cc1/C=N/Nc1nc(N3CCCC3)nc(N3CCCC3)n1)OCO2 | -4.3 | i | 0.88 | 100.1 | 0.6 | -40.7 | 147.5
CCN(CC)S(=O)(=O)c1ccc(N2CCOCC2)c(NC(=O)c2cnccn2)c1 | 5.8 | i | 0.9 | 104.9 | -0.9 | 21.4 | 108.2
Cc1coc2cc3oc(=O)c(Cc4ccccc4)c(C)c3cc12 | -0.4 | i | 0.96 | 99.0 | 0.3 | / | /
ClCC1CN(Cc2ccccc2Cl)CCO1 (stereo not drawn) | 0.6 | i | 1.15 | 95.3 | / | / | /
COc1ccc(-c2cc(-c3ccco3)[nH]c(=O)c2C#N)cc1OC | / | ? | / | 101.3 | / | / | /
Cc1c(C#N)c2ncn(CCCN(C)C)c(=O)c2n1-c1ccccc1 | 0.0 | i | 1.04 | 114.9 | 0.0 | 7.1 | 165.0
CCOC(=O)c1[nH]c(C)c(/C(O)=C2\C(=O)C(=O)N(CCN3CCOCC3)C2c2cccs2)c1C (stereo not drawn) | 3.5 | i | 0.77 | 161.5 | -1.6 | -4.2 | 105.5
Cc1nnc(SCc2cccs2)[nH]c1=O | 0.7 | i | 0.91 | 108.3 | -0.6 | 36.1 | 79.1
CCN1C(=O)c2cccc3c(S(=O)(=O)Nc4ncccc4C)ccc1c23 | -6.2 | i | 0.81 | 71.8 | -2.5 | / | /
COc1ccc(CCn2c(NN=C(C)C)nc3c2c(=O)[nH]c(=O)n3C)cc1 | / | i | 0.94 | 94.8 | / | / | /
O=c1c2ccccc2cnn1Cc1n[nH]c(=S)n1-c1cc(Cl)cc(Cl)c1 | -6.2 | i | 1.18 | 92.0 | -1.1 | / | /
Cc1ccc(N2CC(C(=O)N3CCc4ccccc4C3)CC2=O)cc1 (stereo not drawn) | -8.7 | i | 0.7 | 115.3 | -3.3 | / | /
O=C1NC[C@@H](Cc2ccc(O)cc2)N(CCc2cccc(F)c2)C1=O | / | i | 1.04 | 106.3 | / | / | /
CCOC(=O)c1c(-c2ccc(F)cc2)csc1/N=C/N(C)C | 1.3 | i | 0.97 | 102.7 | / | -75.0 | 138.8
CCOC(=O)C1CCN(C(c2cccs2)c2sc3nc(C)nn3c2O)CC1 (stereo not drawn) | 6.0 | i | 0.83 | 113.1 | -1.2 | -142.9 | 77.0
O=C(N/N=C(\c1ccccc1)c1ccccn1)c1cccc([N+](=O)[O-])c1 | -1.3 | i | 0.62 | 66.2 | / | -150.0 | 30.1
COc1cc2c(cc1NC(=S)Nc1cccc3ccccc13)oc1ccccc12 | -5.3 | i | 0.99 | 88.6 | -2.5 | 23.6 | 111.1
O=C(/C=C/c1ccccc1)N1CCN(c2c(Cl)cccc2[N+](=O)[O-])CC1 | -3.7 | i | 0.98 | 115.8 | -2.3 | / | /
CCc1c(O)nc(SCC(=O)Nc2ccccc2)n(C(C)CC)c1=O (stereo not drawn) | 0.0 | i | 0.76 | 103.1 | -3.2 | 33.3 | 84.4
O=C(CN1C(=O)C2C3C=CC(C3)C2C1=O)Nc1ccc(F)cc1 (stereo not drawn) | 0.6 | i | 0.85 | 95.6 | / | 27.8 | 116.7
COc1ccc(CCNC(=S)Nc2ccccc2)cc1 | / | i | 1.08 | 96.3 | / | / | /
CC(=O)NC(Cc1ccccc1)C(=O)OCC(=O)c1ccccc1 (stereo not drawn) | 9.4 | i | 0.94 | 104.8 | -0.3 | -13.3 | 118.7
CC1Cc2ccccc2N1S(=O)(=O)c1cccc(C(=O)c2nccn2C)c1 (stereo not drawn) | 3.3 | i | 0.79 | 101.7 | -1.2 | -37.5 | 64.9
Clc1cccc2sc(-c3nnc(-c4ccccc4)o3)c(Cl)c12 | -0.8 | i | 1.02 | / | -0.1 | 73.0 | 126.1
O=S(=O)(Nc1cc2nc3ccccc3nc2n1Cc1ccccc1)c1ccc(Cl)cc1 | -5.7 | / | / | 105.3 | 13.6* | / | /
Cc1ccc(NC(=O)c2cc(S(=O)(=O)N3CCC4(CC3)OCCO4)ccc2F)cc1 | -3.7 | i | 0.81 | 101.2 | 0.8 | -57.9 | 162.5
Cn1c(=O)cc(OCCCC(=O)Nc2cccnc2)c2ccccc21 | 13.0 | i | 1.06 | 104.0 | -1.6 | / | /
Cc1nn(-c2ccccc2)c2sc(C(=O)NC3CC3)cc12 | -6.9 | i | 0.84 | 100.3 | -1.5 | 27.0 | 81.9
Cc1cc(N2CCC(C(=O)Nc3ccc(F)cc3)CC2)nc(-c2ccccc2)n1 | 0.2 | i | 1.03 | 104.1 | -0.8 | 15.4 | 100.0
COCCCNC(=O)c1ccccc1SC | -12.1 | i | 0.75 | 100.4 | -1.2 | / | /
Cc1[nH]c(=O)c(C(=O)/C=C/c2ccccc2)c2c1CCCC2 | -20.7 | i | 0.47 | 102.8 | -1.8 | / | /
CS(=O)(=O)N(CC(=O)N1CCC(C(N)=O)CC1)c1ccc(Cl)c(C(F)(F)F)c1 | 4.4 | i | 1.36 | 122.3 | -0.9 | / | /
CCCN1C(=O)c2cccc3c(N4CCCCC4)ccc(c23)C1=O | -1.4 | ? | / | 18.2* | -0.4 | -244.8 | 119.8
COc1cc(CNn2c(C)n[nH]c2=S)cc(Cl)c1OCc1ccc(F)cc1 | -5.3 | i | 0.74 | 100.4 | 0.2 | -30.4 | 64.5
Cc1cccc(C)c1NC(=O)C1CCCN(CCCc2ccccc2)C1 (stereo not drawn) | -3.2 | i | 0.91 | 92.7 | -3.2 | -71.4 | 67.8
O=C(O)CSc1nnc(Cc2ccccc2)n1Cc1ccccc1 | -2.3 | i | 1.04 | 100.9 | -1.9 | -42.9 | 99.0
O=C(NCCCN1CCCC1=O)c1cccnc1 | -1.9 | i | 1.14 | 99.0 | -1.0 | 6.2 | 146.2
CCc1cccc(CC)c1N(COC)C(=O)Cn1c(C(C)O)nc2ccccc21 (stereo not drawn) | -3.8 | i | 1.07 | 100.9 | -2.2 | / | /
Cn1c(SCC(=O)NCc2ccco2)nnc1-c1ccccc1 | -4.6 | i | 0.89 | 101.6 | -3.8 | -437.1 | 46.6

A different layout for four compounds above.
COc1ccccc1CN(C)C(=O)c1ccc2c(c1)NC(=O)CS2
- PKD1 kinase inh: -3.9
- HSV augment: /
- HSV augment primary fold: /
- RGS16-Gao HTS: 101.3
- GALR2 agonist: -0.7
- INS promoter inh: -6.7
- INS promoter inh cell count: 119.4

Clc1cccc2sc(-c3nnc(-c4ccccc4)o3)c(Cl)c12
- PKD1 kinase inh: -0.8
- HSV augment: i
- HSV augment primary fold: 1.02
- RGS16-Gao HTS: /
- GALR2 agonist: -0.1
- INS promoter inh: 73.0
- INS promoter inh cell count: 126.1

Cc1[nH]c(=O)c(C(=O)/C=C/c2ccccc2)c2c1CCCC2
- PKD1 kinase inh: -20.7
- HSV augment: i
- HSV augment primary fold: 0.47
- RGS16-Gao HTS: 102.8
- GALR2 agonist: -1.8
- INS promoter inh: /
- INS promoter inh cell count: /

COc1cccc(C(=O)N(c2ccc(OC)cc2OC)C2C=CS(=O)(=O)C2)c1 (stereo not drawn)
- PKD1 kinase inh: -10.4
- HSV augment: i
- HSV augment primary fold: 0.99
- RGS16-Gao HTS: 104.4
- GALR2 agonist: -0.1
- INS promoter inh: 45.5
- INS promoter inh cell count: 68.5

More entries:
SMILES | PKD1 kinase inh | HSV augment | HSV augment primary fold | RGS16-Gao HTS | GALR2 agonist | INS promoter inh | INS promoter inh cell count
COc1ccc(C(=O)Nc2ccc(Cl)c(Cl)c2)c(OC)n1 | -3.9 | i | 0.84 | 105.0 | -0.4 | -6.2 | 191.8
CCOC(CC(=O)NNC(=O)c1c(-c2ccccc2Cl)noc1C)OCC | / | i | 1 | 98.9 | / | / | /
CC1(C)CC(NC(=O)CC2CCCCC2)CC(C)(C)N1 | 2.0 | i | 1.08 | 107.3 | -0.7 | 81.8* | 116.5*
O=C(NCc1ccc2c(c1)OCO2)c1ccc(N2C(=O)C3CCCCC3C2=O)cc1 (stereo not drawn) | 2.6 | i | 0.74 | 102.2 | -2.4 | 36.7 | 72.3
O=C(NC(=S)NCCc1ccccn1)c1ccco1 | -0.7 | i | 0.92 | 101.9 | / | / | /
Cc1cc(N2CCN(C)CC2)nc2ccc(NC(=O)c3ccc(Br)o3)cc12 | -7.8 | i | 0.66 | 106.3 | 0.1 | / | /
Cc1ccc(C)c(S(=O)(=O)N2CCN(C(=O)Cn3c(C(F)(F)F)nc4ccccc43)CC2)c1 | -10.1 | i | 1.03 | 100.3 | -1.8 | 15.4 | 95.6
CCOCC(=O)Nc1c(C(=O)Nc2ccc(OC)cc2OC)oc2ccccc12 | -4.7 | i | 1.06 | 125.5 | -0.7 | 20.0 | 112.2
CC(=O)N(c1ccccc1Cl)S(=O)(=O)c1ccc(Cl)cc1 | -4.2 | i | 0.91 | 100.8 | / | / | /
